TRPML1 inh: inhibitors of human TRPML1 channel. TRPML1-inducible cells, Ca2+ dye fluorescence, FDSS; hits give low values; inhibition of EC80 agonist-evoked calcium signal. activity change, negative = inhibition, % (no concentration beside the values). 390,000 tested, 0.02% active. Q9GZU1; in the data active means activity change below about -50%; inconclusive means about -30% to -50%; inactive means above about -30%;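 further: stimulus is agonist 54-4 at its EC80 concentration; on the % scale 0 is the no-effect control and ±100 the full control effect; compound concentration not given in the record; the text of the record puts the active cut at -80%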
Target sequence (Q9GZU1 whole entry, looked up): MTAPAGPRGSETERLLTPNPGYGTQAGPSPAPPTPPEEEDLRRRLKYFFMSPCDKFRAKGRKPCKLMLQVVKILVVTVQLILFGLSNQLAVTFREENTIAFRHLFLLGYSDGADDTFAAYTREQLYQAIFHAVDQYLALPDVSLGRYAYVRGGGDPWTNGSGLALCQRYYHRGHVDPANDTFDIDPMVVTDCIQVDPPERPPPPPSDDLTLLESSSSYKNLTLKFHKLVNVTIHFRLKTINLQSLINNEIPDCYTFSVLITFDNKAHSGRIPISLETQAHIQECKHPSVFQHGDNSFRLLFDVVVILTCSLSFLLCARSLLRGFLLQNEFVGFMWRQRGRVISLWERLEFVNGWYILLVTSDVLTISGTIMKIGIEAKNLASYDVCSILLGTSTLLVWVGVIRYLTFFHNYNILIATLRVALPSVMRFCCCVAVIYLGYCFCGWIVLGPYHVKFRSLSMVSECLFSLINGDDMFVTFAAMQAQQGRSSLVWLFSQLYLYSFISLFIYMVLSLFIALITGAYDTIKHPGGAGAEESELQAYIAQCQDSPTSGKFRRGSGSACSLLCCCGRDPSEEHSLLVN
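Tet-induced TRPML1-DL cells loaded with Ca8 no-wash calcium dye were read kinetically on FDSS. Compound addition was followed by EC80 agonist 54-4 (4 uM final); inhibition was read over 110 s.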
Menin MLL FP FL: displaces fluorescein MLL peptide from human menin. 290,000 tested, under 10 active. FP activity change, % at 61.4 µM. Fluorescence polarization, fluorescein-MLL peptide displacement from menin; inconclusive = falling polarisation curve, or a change in total fluorescence; inactive = total fluorescence flat and polarisation flat or rising; no compound was filed as active; the % refers to the polarisation; negative = inhibition;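 further: % of control where 0% means no effect; inhibitors lower the polarisation; unlabelled MLL peptide was the positive control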
gsp agonist: agonists of gsp mutant (McCune-Albright syndrome). gsp mutant cells, cAMP HTRF, 30 min; control for the full effect not named in the record. 340,000 tested, 0.13% active. Potency, µM (doses to about 76.9 µM), for the others: at the top dose activation (cAMP increase), hits mostly activators. AID 624287; active = well fitted activation curve with a large enough effect; inconclusive = small, poorly fitted or top-dose-only effect, or another doubt; inactive = no such curve, though single readings can be large or run the other way; cell line not stated here;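 further: phosphodiesterase inhibitor Ro 20-1724 added with compounds to block cAMP breakdown; potency means the concentration at half of the fitted maximal effect; nearly all actives have a fitted effect of over 60% in size; about a fifth of the inactives were tested at one dose only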
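Cells stably selected in G418 were plated at 2000/well, grown 16-24 hr, then given compounds in DMSO with the PDE inhibitor […] (300 uM solution added) for 30 min at 37C; cAMP was read by HTRF.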
TRPML1 ag: agonists of human TRPML1 channel. AID 624414. Q9GZU1. 410,000 tested, 0.12% active. activation, % (no concentration beside the values). TRPML1-expressing cells, Ca2+ dye fluorescence, FDSS; host cell line not named in the record; reference of the full effect not given here; in the data active = activation above about 50%; inconclusive = about 30% to 50%; inactive = below about 30%; further: 0% is about no effect; the text of the record puts the active cut at 80%
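TRPML1-DL cells, Tet-induced overnight (~16 h, 37 degrees C), loaded 45-90 min at room temperature with Ca8 no-wash calcium dye plus quencher. FDSS fluorescence: 10 s baseline, compound pin-transfer, 110 s agonist read, then EC80 54-4 (4uM final) and 110 s antagonist read.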
gsp antagonist: antagonizes gsp, the McCune-Albright syndrome mutation. gsp-mutant cells, cAMP HTRF, 30 min; control for the full effect not named in the record. Potency, µM (top dose mostly 76.9 µM), inactives show top-dose activity change, negative = inhibition, most hits filed as inhibitors. 340,000 tested, 0.4% active; active = falling curve of any shape with a large fitted effect; inconclusive = falling curve, mostly with a smaller effect; inactive = flat or rising curve; cell line not stated here;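 further: intracellular cAMP measured with PDE inhibitor Ro 20-1724 present during compound exposure; potency means the concentration at half of the fitted maximal effect; on the % scale 0 is the no-effect control and ±100 the full control effect; nearly all actives have a fitted effect of over 65% in size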
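HTRF cAMP read-out (cAMP-d2 plus anti-cAMP antibody-K in lysis buffer, 30 min RT). Before lysis, cells are exposed to compounds with […] for 30 min at 37C in DPBS containing Ca/Mg, BSA and Tween 20.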
ClpP mod: qHTS Assay for Activators of ClpP | purified B. subtilis ClpP, FRET peptide cleavage, 20 min | ATP-dependent Clp protease proteolytic subunit (Bacillus subtilis (strain 168)), P80244 | AID 651965, 2013 | Potency, µM (doses to about 57.5 µM), for the others: top-dose activity change, negative = active | 340,000 tested, 1.9% active; active = well fitted falling curve with a large enough effect; inconclusive = small, poorly fitted or top-dose-only effect; inactive = no such curve, though single readings can be large or run the other way; further: potency means the concentration at half of the fitted maximal effect; the source files actives as falling curves though it sought activators and does not explain the sign; nearly all actives have a fitted effect of over 65% in size; many hits overshoot -100%
Target sequence (P80244 whole entry, looked up): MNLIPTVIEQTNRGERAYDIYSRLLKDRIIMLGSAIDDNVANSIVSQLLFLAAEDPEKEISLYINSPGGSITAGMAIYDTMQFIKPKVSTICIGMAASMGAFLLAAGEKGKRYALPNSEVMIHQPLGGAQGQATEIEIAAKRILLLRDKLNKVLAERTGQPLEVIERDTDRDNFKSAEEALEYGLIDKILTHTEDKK
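Purified B. subtilis ClpP, 10 microg/mL final in Tris/HCl pH8 with KCl, BSA, glycerol and Tween-20, cleaved an Abz/nitrotyrosine-quenched decapeptide. Fluorescence (ex 320, em 430) was read at 0 and 20 min at room temperature. Delta was normalized to 5.8 microM ADEP and DMSO/no-enzyme controls.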
Numbers without * were called inactive; u = inconclusive; x = not tested or not shown; [ ] = remark or other dose.

SMILES | TRPML1 inh | Menin MLL FP FL | gsp agonist | TRPML1 ag | gsp antagonist | ClpP mod
O=C(Cn1cc([N+](=O)[O-])ccc1=O)N1CCc2ccccc21 | -13.5 | x | 26.4%[15.4 µM] | -0.3 | 3.3% | -2.5%
COc1ccccc1-c1noc2c1C(=O)NCC2 | 2.3 | x | -29.3% | -0.2 | x | -0.5%
CCCCc1cc(=O)oc2c(CN3CCN(C)CC3)c(O)ccc12 | 0.5 | -0.8 | -1.2% | 0.4 | 1.0% | 3.5%
COc1ccc(Nc2nc(N)nc(CSCCO)n2)cc1 | -10.3 | -0.4 | -9.6% | 0.6 | 4.7% | -0.4%
CCCCC(=O)NC(=S)Nc1cc([N+](=O)[O-])ccc1OC | 15.9 | 5.0 | -35.9%[inhibitor] | 0.3 | -11.7% | -1.5%
CCOc1ccc(N=Cc2c(O)cc(C)oc2=O)cc1 | 17.5 | 3.8 | -28.7% | -0.2 | 4.4% | -1.5%
Cc1cnc(C(=O)NCCc2ccc(S(=O)(=O)NC(=O)NC3CCCCC3)cc2)cn1 | 7.1 | 2.2 | x | -0.8 | -13.8% | 0.6%
CC(NC(=O)c1ccc(C(C)(C)C)cc1)C(c1cccs1)N1CCOCC1 (configuration not stated) | 9.9 | 3.9 | -40.2%[inhibitor] | 0.1 | -27.4% | -0.3%
CSCC(=O)N1CCC(CCC(=O)NC2CC2)CC1 | 2.6 | 3.0 | 0.1% | 0.7 | -3.0% | -0.3%
COc1cc(C(C)=O)ccc1OCc1nnc(-c2ccccc2Br)o1 | 8.9 | -2.6 | -3.7% | 2.6 | -3.3% | x
CCn1c(SCC(=O)NCc2ccccc2)nc2c(c1=O)SC(C)C2 (configuration not stated) | 6.8 | 2.5 | -8.0% | 0.2 | -3.2% | 1.3%
Cc1ccc(NC(=O)C(=O)NCC(c2ccc3c(c2)OCO3)N2CCN(C)CC2)cc1C (configuration not stated) | -10.1 | x | x | 0.8 | x | -4.0%
COc1ccc(OC)c(C(=O)Nc2ccc3[nH]ccc3c2)c1 | -15.7 | x | 8.7%[15.4 µM] | -0.3 | -34.8% | u
Cc1ccc(S(=O)(=O)N2C[C@H]3N(C(=O)OC(C)C)N(C(=O)OC(C)C)C[C@H](OC(=O)NC4CCCC4)[C@@]3(O)C2)cc1 | -7.5 | x | -86.6%[inhibitor] | -0.1 | x | 0.4%
COc1ccc(NC(=O)c2ccc(Br)o2)c([N+](=O)[O-])c1 | 12.8 | 2.3 | -26.3% | -0.3 | -1.3% | -0.5%
O=C(Nc1nc2ccccc2s1)c1ccc(Cl)s1 | 9.3 | 1.4 | u | 0.5 | 7.2% | -18.0%
Fc1ccc(C[n+]2csc3ccccc32)cc1 | -2.2 | 0.9 | -25.5% | 6.3 | 9.1% | -1.8%
Cc1ccc(-c2csc(N=C(N)N)n2)cc1 | -12.1 | 1.1 | -4.4%[15.4 µM] | 3.0 | 1.0% | x
C=CCOC(=O)C1=C(C)NC(=O)NC1c1ccc(Cl)cc1 (configuration not stated) | 7.1 | 1.9 | -12.5% | -0.2 | -2.8% | -2.2%
CC(=O)N1CCN(c2nnc(-c3ccc(C)cc3)c3ccccc23)CC1 | 2.7 | 0.8 | -2.9% | 1.9 | -12.0% | x
COC(=O)c1ccccc1NC(=O)c1c(NC(=O)c2ccco2)sc2c1CCC(C(C)(C)C)C2 (configuration not stated) | 24.6 | x | x | 0.4 | x | -3.6%
Cc1[nH]c2ccc(F)cc2c1CCN(Cc1cccnc1)C(=S)NC(C)(C)C | 4.7 | 2.4 | 1.5% | -0.5 | 9.3% | x
CCCNC(=O)C1(C)CCCN(C(=O)C(c2ccccc2)c2ccccc2)C1 (configuration not stated) | 16.2 | x | x | 0.2 | x | 0.8%
Cc1cc(C)c(C(=O)OCc2csc(CC(=O)Nc3ccccc3C)n2)c(C)c1 | 11.9 | 1.5 | -0.8% | 1.2 | -18.1% | -0.9%
COc1ccc(S(=O)(=O)N2CCN(C(=O)NCc3ccc(OC)c(OC)c3)CC2)cc1 | -10.3 | -2.5 | -11.9%[15.4 µM] | -0.5 | -18.3% | x

The listing continues.
SMILES | TRPML1 inh | Menin MLL FP FL | gsp agonist | TRPML1 ag | gsp antagonist | ClpP mod
COC(=O)c1c(C)[nH]c(C(=O)/C=C/c2ccccc2Cl)c1C | 7.9 | 8.0 | -5.9% | 1.8 | -0.8% | 0.8%
CC1CN(Cc2nc3c(c(=O)n(C)c(=O)n3C)n2CCCc2ccccc2)CC(C)O1 (configuration not stated) | 8.9 | x | 24.5% | 0.5 | 2.6% | 2.0%
Cn1cc(CN2CCC(C(=O)Nc3cccc(-c4cscn4)c3)CC2)cn1 | 11.2 | -2.0 | 0.9% | -0.9 | 1.0% | 0.2%
COc1ccccc1NC(=O)CSc1nnnn1-c1ccc2c(c1)OCO2 | -4.0 | 0.0 | 16.5% | 0.6 | -7.3% | 1.7%
COc1ccc(C2CC(=O)OC3=C2C(=O)CC(C)(C)C3)c(OC)c1 (configuration not stated) | 3.9 | -0.4 | -21.5% | -0.1 | 4.0% | x
CCN(CC)CC(O)Cn1c2ccccc2c2ccccc21 (configuration not stated) | 11.9 | 4.7 | -19.1% | 0.1 | -2.0% | -26.8%
CC1CCN(C(=O)CSc2ccc(-c3ccc(F)cc3)nn2)CC1 | -7.0 | 1.2 | u | 0.4 | -3.1% | 31.6µM*
CCC(Sc1ncccc1C(=O)Oc1cccc([N+](=O)[O-])c1)C(=O)Nc1ccccc1OC (configuration not stated) | 6.8 | 0.2 | -15.2% | -0.7 | -9.2% | 35.5µM*
O=C(NCCCN1CCOCC1)c1[nH]c(C(F)(F)F)nc1-c1ccccc1 | -3.0 | x | x | -0.1 | x | -0.7%
O=c1[nH]c(-[n+]2ccccc2)c(/C=N/N=C(\[O-])c2ccccc2)s1 | 20.7 | -12.3 | -1.1%[15.4 µM] | 0.9 | -6.5% | x
COc1ccc(OC)c(NS(=O)(=O)c2ccc(Cl)nc2)c1 | -4.3 | 4.0 | -57.1% | -0.4 | -9.0% | 1.4%
O=C(Nc1ncccn1)c1ccc(Cl)c([N+](=O)[O-])c1 | 4.0 | -1.3 | 24.9% | -0.3 | -11.2% | -3.0%
CC1=C(C(=O)N2CCOCC2)CC(CC(=O)NC2CC2)C(=O)N1Cc1ccc(C(C)(C)C)cc1 (configuration not stated) | -5.2 | x | 11.1% | 0.9 | x | -1.9%
Cc1cc(C)cc(NC(=O)Cn2c(=O)oc3cc(S(=O)(=O)N4CCCC4)ccc32)c1 | 13.3 | x | x | 1.0 | x | -5.2%
Cc1ccc(C)c(OCCC(=O)OCC(=O)Nc2cccc(S(=O)(=O)N3CCCC3)c2)c1 | -1.7 | x | -35.0%[inhibitor] | 1.2 | -9.3% | 1.7%
Cc1ccc(NC(=O)c2cnccn2)cc1C | -7.1 | -5.3 | -31.4%[inhibitor] | -0.7 | 4.5% | 0.4%
COCCn1c(C)cc(C(=O)COC(=O)c2ccccc2Br)c1C | 7.6 | -1.7 | -4.2% | 1.9 | -0.7% | 0.3%
Cc1ccc(C)c(C(=O)CCC(=O)O)c1 | 5.3 | u | -25.3% | 1.8 | 2.0% | -0.5%
COc1ccc(CN(C(=O)c2cnccn2)C(C(=O)NC(C)(C)C)c2cc(OC)c(OC)c(OC)c2)cc1 (configuration not stated) | 7.7 | 0.5 | -4.8% | -0.3 | -3.8% | 0.5%
CN(CC(=O)Nc1ccccc1Cl)C(=O)c1cccc(S(=O)(=O)N2CCN(c3ccc(F)cc3)CC2)c1 | 3.1 | x | -20.1% | 1.2 | u | -2.0%
CCC(CO)N=CC1=C(O)CC(C)(C)CC1=O (configuration not stated) | 4.3 | -3.0 | 9.9% | 0.7 | 4.4% | -3.0%
Clc1ccc(Nc2nc(N3CCOCC3)nc(N3CCOCC3)n2)cc1Cl | -7.4 | x | 7.6% | -0.8 | 20.2% | -3.3%
CCS(=O)(=O)N1CCCC(C(=O)NCc2cccnc2)C1 (configuration not stated) | 9.4 | -0.6 | 0.0% | -0.9 | 21.3% | -1.5%
Cc1n(-c2ccccc2)c2ccc(Cl)cc2[n+]1CCO | -12.0 | 1.4 | -27.8% | -0.7 | -7.7% | x
COC(=O)C(C)N1C(=O)S/C(=C\c2ccc(-c3ccc(C(=O)O)cc3C)o2)C1=O (configuration not stated) | 5.8 | u | -24.5% | -0.1 | -23.5% | 1.1%

Further compounds
SMILES | TRPML1 inh | Menin MLL FP FL | gsp agonist | TRPML1 ag | gsp antagonist | ClpP mod
N#Cc1c(C(F)(F)F)cc(-c2cccc(Cl)c2)[nH]c1=O | 6.1 | 4.7 | 4.4% | 1.8 | 35.5µM* | 5.9%
O=C(CN(C(=O)c1csnn1)c1ccc2c(c1)OCCO2)NCc1ccc(F)cc1 | -12.1 | -1.6 | -9.6%[15.4 µM] | -0.5 | x | x
Cc1ccc(C(=O)NCc2ccc3c(c2)OCO3)cc1N1CCCC1=O | 8.3 | -1.5 | -1.7% | 0.1 | -5.9% | 1.3%
CCOC(=O)c1c(C)n(C)c2cc(CN(C)C)c(O)c(S(=O)(=O)c3ccccc3)c12 | 2.7 | 3.1 | 1.1% | 2.0 | 3.7% | x
O=C(NC1(C(F)(F)F)NC(=O)N(Cc2cccnc2)C1=O)c1ccccc1Cl (configuration not stated) | 0.1 | 0.6 | -30.7% | -0.2 | -2.5% | 1.2%
CCSc1nsc(NC(=O)Nc2cccc(F)c2)n1 | 9.1 | -5.2 | 23.3% | 2.8 | -25.0% | x
c1csc(-c2nc(CN3CCSCC3)cs2)c1 | 25.8 | 1.0 | 9.1%[15.4 µM] | -0.3 | -0.7% | 0.3%
Cc1ccc(OC(=O)CCC(=O)N2CCc3ccccc32)cc1 | 13.1 | 1.2 | -54.7%[inhibitor] | 1.6 | 1.1% | -2.1%
Cc1ccc(C(=O)Nc2ccc(N3CCCC3)cc2)c(C)c1 | -4.1 | -0.2 | 6.1% | 0.4 | -15.2% | x
CCOC(=O)C1(Cc2cccc(Cl)c2)CCCN(C(=O)C(C)(C)C)C1 (configuration not stated) | 14.3 | 2.1 | -46.9%[inhibitor] | -0.2 | -6.1% | x
Cc1ccc2nc(C(=O)N3CCCC(Nc4ccc(F)cc4)C3)cn2c1 (configuration not stated) | -5.3 | x | -1.4%[15.4 µM] | -0.6 | -6.8% | 2.2%
CC(OC(=O)C1=NNC(=O)CC1)C(=O)Nc1ncc(Cl)cc1Cl (configuration not stated) | -18.6 | 2.0 | -25.0% | 0.3 | 5.7% | -3.8%
O=C(NCC(c1cccnc1)N1CCc2ccccc2C1)C(=O)Nc1ccc(Cl)cc1 (configuration not stated) | 38.4 | x | x | 1.2 | x | -0.8%
